From PubChem
UCH37 inh – inhibitors of human deubiquitinating enzyme UCH37 | Q9Y5K5 | 330,000 tested, 0.33% active | inhibition, % (no concentration beside the values) | AID 588478 | purified proteasome/UCH37, Ub-AMC cleavage fluorescence;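 active = mean of two replicates above 20%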;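 note: 0% = compound-free wells with enzyme and 100% = wells lacking proteasome; stock transfer was 100 nL into about 20 µL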
Target sequence (Q9Y5K5 whole entry, looked up): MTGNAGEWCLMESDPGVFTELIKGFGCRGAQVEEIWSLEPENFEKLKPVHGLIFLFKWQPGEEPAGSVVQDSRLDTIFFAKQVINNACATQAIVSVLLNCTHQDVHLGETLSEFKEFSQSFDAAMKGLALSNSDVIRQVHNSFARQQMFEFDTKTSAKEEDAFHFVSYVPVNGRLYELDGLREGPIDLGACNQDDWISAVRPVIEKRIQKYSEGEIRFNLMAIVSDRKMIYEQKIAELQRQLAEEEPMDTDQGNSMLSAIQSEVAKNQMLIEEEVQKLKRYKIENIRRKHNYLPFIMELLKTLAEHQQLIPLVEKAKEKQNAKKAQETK
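Signal – fluorescence, ex 355 nm, em 460 nm · System – Proteasome-bound UCH37 · Input – 0.15 nM proteasome as dispensed · Timing – 30 min preincubation with enzyme, 25 min cleavage at room temperature · Read-out basis – percent inhibition of cleavage signal versus uninhibited and no-proteasome wells · Medium – Tris-HCl pH 7.4 with ATP-MgCl2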
HNF4A DNA FP – change in binding of human HNF4 alpha to DNA; activity change, % at 10 µM; 360,000 tested, 0.3% active; HNF4a-FITC DNA binding, fluorescence polarization, 1 h; in the data active = activity change above about 30%, passing the limit was not always enough;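 note: controls were the assay level and a saturating level of protein; the project sought stronger binding though the title names inhibitors; some compounds called inactive have numbers as strong as hits; positive values seem to mean higher polarization but the record does not say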
AF4-AF9 inh – MLL-AF4/AF9 protein interaction inhibition. P42568. AlphaScreen, biotin-AF4 peptide binding to FLAG-AF9. inhibition, % at 10 µM. 350,000 tested, 0.47% active. AID 651704;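 active = every replicate reaching a set inhibition limit, whatever the replicate mean, cut at about 25% in these data; inconclusive = mean inhibition reaches that limit but some replicates miss it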;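 note: 0% = plate neutral control median and 100% = total signal loss; the record names both 10 and 1 µM as test concentration; the first replicate is given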
Target sequence (P42568 whole entry, looked up): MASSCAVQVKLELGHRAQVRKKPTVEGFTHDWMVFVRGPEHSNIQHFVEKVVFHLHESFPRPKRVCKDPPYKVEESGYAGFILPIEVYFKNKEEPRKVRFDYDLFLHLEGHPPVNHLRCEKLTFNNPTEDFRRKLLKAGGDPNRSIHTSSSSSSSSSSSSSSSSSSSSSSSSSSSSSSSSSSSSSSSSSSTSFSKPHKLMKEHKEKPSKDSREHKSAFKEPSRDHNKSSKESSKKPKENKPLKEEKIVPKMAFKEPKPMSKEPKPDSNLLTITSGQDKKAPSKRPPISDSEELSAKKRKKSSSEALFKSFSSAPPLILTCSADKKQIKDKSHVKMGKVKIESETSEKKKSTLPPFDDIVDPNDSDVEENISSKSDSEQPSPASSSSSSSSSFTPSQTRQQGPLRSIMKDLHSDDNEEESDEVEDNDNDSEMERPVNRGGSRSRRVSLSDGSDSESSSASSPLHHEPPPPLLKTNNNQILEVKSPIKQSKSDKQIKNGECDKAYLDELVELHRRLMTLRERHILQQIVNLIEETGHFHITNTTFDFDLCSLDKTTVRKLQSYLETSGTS
Vif TR-FRET – HIV-1 Vif–A3G interaction blockers – biochemical, TR-FRET, GST-Vif 1-94, biotin-A3G peptide, dose response retest, primary screen (AID 1117319); TR-FRET GST-Vif / biotin-A3G peptide binding; higher % means a stronger effect; test concentration not given here; strong numbers were not always called active; inhibition, %, or IC50 in µM where a hit was titrated; 260,000 tested, 0.57% active;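 active = above the screen mean plus three standard deviations and confirmed in dose response; inconclusive = results disagree or hit not tested in dose response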;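 note: Vif residues 1-94 fused to GST binding biotinylated APOBEC3G peptide 110-148; 0% = full assay without inhibitor and 100% = GST in place of GST-Vif; retest series ran down from 100 µM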
RanGTP-Impb inh – disruptors of Ran-importin-beta complex formation – biochemical, FRET, CFP-Ran, YFP-importin-beta, homogeneous, primary screen; cell-free CFP-Ran/YFP-importin-beta FRET ratio; 300,000 tested, 1.1% active; inhibition, % (concentration not given with the values);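 active = most replicates above 15%; inconclusive = exactly half above 15%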;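 note: 0% = DMSO wells and 100% = Ran loaded with GDP instead of GTP; wells of about 40 µL received 100 nL stock; the first replicate is given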
Ecoli growth – blocks Escherichia coli growth; OD600, 23 h; hits give low values; OD600 absorbance (test concentration not listed); 330,000 tested, 0.21% active;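 active = OD600 absorbance below the run mean of sample wells minus 3.6 SD, in any replicate, cut at about 0.56 in these data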;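 note: stock transfer was 300 nL into about 60 µL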
FGF22 binding – binders of recombinant human FGF22 by thermal shift. Q9HCT0. SYPRO orange fluorescence; percent of sucrose octasulfate shift, DMSO zero. calls only at 9.99 µM. 340,000 tested, 1.5% active. AID 651658;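 active = melting point raised past a set limit in the mean and every replicate; inconclusive = no clear call; three in four hits are not shown here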
Target sequence (Q9HCT0 whole entry, looked up): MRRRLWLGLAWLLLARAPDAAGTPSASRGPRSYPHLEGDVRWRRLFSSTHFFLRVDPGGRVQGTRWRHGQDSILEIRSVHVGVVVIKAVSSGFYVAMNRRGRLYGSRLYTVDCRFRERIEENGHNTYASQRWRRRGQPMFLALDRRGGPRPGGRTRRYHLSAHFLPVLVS
Numbers without * were called inactive; i = inactive; ? = inconclusive; . = not tested or not shown; + = active, no number; & = joins results of further samples. Some of the compounds tested. The share of hits here may be higher or lower than overall.

SMILES	UCH37 inh	HNF4A DNA FP	AF4-AF9 inh	Vif TR-FRET	RanGTP-Impb inh	Ecoli growth	FGF22 binding
Cc1ccc(S(=O)(=O)NCC(=O)N(CC(=O)NCc2ccco2)Cc2ccc(F)cc2)cc1	3.9	5.5	-2.0	-6%	-5.9	0.7	i
C=C1C[C@H](O)[C@@H]2[C@H](OC(=O)[C@H]2C)[C@H]2[C@H](C)[C@@H](O)C[C@@H]12	2.7	1.3	3.1	.	.	.	i
COc1ccc(S(=O)(=O)N2CCCN(CC(=O)Nc3ccccc3F)CC2)cc1	2.7	3.6	0.1	.	2.0	0.68	i
CC(=O)OC(C)CS(=O)(=O)c1ccccc1 (centres undefined)	-0.2	0.2	-1.2	-5%	-2.0	0.65	i
COc1ccccc1Nc1nc(N)nc(CSC(=S)N2CC(C)CC(C)C2)n1 (centres undefined)	3.3	3.8	.	1%	-1.2	0.73	.
CCc1cc(C(=O)N2CCCC(C(=O)c3cccc4ccccc34)C2)n(C)n1 (centres undefined)	-1.3	-2.4	-3.0	5%	3.6	0.72	i
COc1cc(C2c3c(c(C)c(C)oc3=O)Oc3c(C)c(C)oc(=O)c32)ccc1OS(=O)(=O)c1ccc(C)cc1	3.4	-1.7	-7.5	.	.	0.72	i
CCOc1ccc(S(=O)(=O)NCc2ccc3c(c2)OCO3)cc1C	2.8	3.4	1.7	.	-2.7	0.69	i
Cc1nn(-c2ccccc2)c(Cl)c1C1C(C#N)=C(N)Oc2c1c(C)nn2-c1ccccc1 (centres undefined)	4.3	-1.9	.	2%	4.2	0.78	.
Fc1ccccc1COc1ccc(-c2nnn(Cc3ccccc3F)n2)cc1	3.1	-0.2	-0.6	-8%	-1.9	0.73	i
CCOC(=O)CSc1nc2c(c(=O)n(C)c(=O)n2C)n1CCCc1ccccc1	-0.3	-1.6	.	-2%&2%	4.1	0.76	.
CCOc1cc(S(=O)(=O)NC2CC2)c(OCC)cc1-n1cnnn1	-91	2.5	.	10%	-1.7	0.76	.
Cc1nc2sc(C(=O)c3ccccc3)c(N)c2c(C)c1C	-42	-1.9	2.4	0%	-0.2	0.7	i
CC(NS(=O)(=O)c1ccc(OCC(=O)N2CCCC2)cc1)c1ccccc1 (centres undefined)	1.2	0.8	-7.5	.	-0.3	0.65	i
CC(=O)c1cccc(NC(=O)C2C3CCC(C3)C2C(=O)O)c1 (centres undefined)	2.8	-1.6	-2.5	.	0.7	0.67	i
COc1cc(OC)cc(C(=O)N[C@H](C(=O)OCC(=O)Nc2cccnc2Cl)C(C)C)c1	1.0	3.3	2.3	2%	.	0.66	i
COc1ccc(-n2ccnc2SCC(=O)NO)cc1	3.1	-1.2	1.0	7%	4.2	0.72	i
Cc1cc(C)n(C(=O)c2ccc(NC(=O)CC(C)C)cc2)n1	-1.4	254	.	30%	-3.4	0.69	.
CN1CCN(C(=O)C2Cc3c(-c4cccc(F)c4)ccnc3O2)CC1 (centres undefined)	.	-0.3	-0.7	.	.	.	i
CCc1ccccc1NC(=O)CSc1nc2cc(C(=O)NCC3CCCO3)ccc2c(=O)n1CC1CCCO1 (centres undefined)	.	-3.3	-16	.	.	.	i
CCOc1ccc(-c2noc(-c3csc([C@@H]4O[C@H](CO)[C@H](O)[C@H](O)[C@H]4O)n3)n2)cc1	.	0.5	-7.9	.	.	.	i
CCOc1ccc(OCC)c(NC(=O)C2CCN(S(=O)(=O)c3ccc4c(c3)CC(C)N4C(C)=O)CC2)c1 (centres undefined)	2.5	-1.1	0.2	.	6.9	0.67	i
Cn1c(/C(C#N)=C(\O)COc2ccc3ccccc3c2)nc2ccccc21	-3.7	2.4	.	-31%	-3.3	0.74	.
O=C(OCc1ccccc1)C1=NNC2C(=O)N(c3ccccc3)C(=O)C12 (centres undefined)	1.7	-5.1	.	.	-0.6	0.69	.
COc1ccc(C2C(C#N)=C(N)N(N(C)C)C3=C2C(=O)CCC3)cc1 (centres undefined)	6.5	2.5	0.8	1%	-1.5	0.68	i
SMILES	UCH37 inh	HNF4A DNA FP	AF4-AF9 inh	Vif TR-FRET	RanGTP-Impb inh	Ecoli growth	FGF22 binding
CC(=O)Nc1ccc(S(=O)(=O)N2CCC(C(=O)N[C@@H](Cc3ccccc3)C(=O)O)CC2)cc1	1.6	1.0	-1.8	2%	-0.4	0.66	i
COC(=O)C1=C(C)N(C)C(=S)NC1c1c(OC)ccc2ccccc12 (centres undefined)	2.1	0.5	-0.1	-3%	0.3	0.72	i
O=C(CN(c1ccc(Cl)cc1)S(=O)(=O)c1ccc(Cl)c([N+](=O)[O-])c1)NCCc1ccc(F)cc1	3.6	2.4	.	-2%	?	0.73	.
Cc1ccc(C2=NN(Cc3nnc(-c4ccccc4)o3)C(=O)SC2)cc1	2.3	-1.5	.	-5%	-1.6	0.75	.
CC(NC(=O)c1ccncc1)C(C)(C)C (centres undefined)	-0.5	7.5	.	-6%	-3.3	0.68	.
O=C(O)/C=C\C(=O)Nc1cc(O)ccc1[N+](=O)[O-]	11	-0.1	-22	29%	-1.8	0.67	i
COC(=O)C(C(=O)OC)=C(/C=C/C=C/N(C)C)N(C)C	12	1.2	.	30%	0.9	0.7	.
COc1ccc(Cl)cc1NC(=S)N(CCCN1CCOCC1)Cc1cn(C)c2ccccc12	5.4	-1.0	.	.	?	0.69	.
Cc1cccc(C(O)c2ncc(-c3ccccc3)[nH]2)c1C (centres undefined)	.	-0.1	0.6	.	.	.	i
Cn1cccc1-c1cc(C(=O)O)[nH]n1	3.8	11	.	17%	3.2	0.7	.
CCn1nc(C)c(NC(=O)/C=C/c2ccc(OC)c(COc3ccc(Br)cc3)c2)c1C	2.6	-0.6	.	-16%	-6.4	0.6	.
COc1cc(OC)nc(Nc2nc(C(N)CCc3ccccc3)cs2)n1 (centres undefined)	.	2.8	6.2	.	.	.	i
COc1ccc(C(=O)NCCS(=O)(=O)NCc2ccc(F)cc2)cc1	-0.2	1.4	-1.5	2%	5.4	0.69	i
CCOC(=O)c1ccc(-c2c(-c3ccc4c(c3)OCO4)noc2C)cc1F	0.2	-0.1	-17	.	-0.5	0.71	i
O=C(CCc1ccco1)CCc1ccco1	-1.4	-7.2	0.6	9%	.	0.66	i
CN(C)CCCN1C(=O)CSC1c1ccc([N+](=O)[O-])cc1 (centres undefined)	0.9	3.4	0.0	-4%	-1.3	0.66	i
O=C(Nc1nc(-c2ccc(Cl)cc2)cs1)C1=COCCO1	0.3	0.2	4.9	5%	4.5	0.65	i
Oc1ccc(N2CCN(c3nc(-c4cccs4)nc4ccccc34)CC2)cc1	5.2	0.2	8.3	?	-5.8	0.69	i
CCN(CC)c1ncc(C)c(=O)[nH]1	0.7	0.3	.	6%	-1.8	0.73	.
CN(C)c1cccc(C(=O)N2CCCC(CCC(=O)N3CCN(c4ccccn4)CC3)C2)c1 (centres undefined)	-0.4	4.0	3.7	.	-0.2	0.73	i
COc1ccc(N2C(=O)C(CC(=O)Nc3ccccc3)N(Cc3ccc4c(c3)OCO4)C2=O)cc1 (centres undefined)	3.3	7.0	4.0	24%&-12%	-2.0	0.69	+
C[C@@H]1Cc2[nH][nH]c(=O)c2[C@H](C)O1	.	2.2	0.4	.	.	.	i
Cn1c(NNC(=O)c2ccccc2F)cc(=O)n(C)c1=O	4.0	-2.9	0.1	17%	1.2	0.66	i
CCOC(=O)CCC(=O)Nc1ccc(S(=O)(=O)N2CCCCC2)cc1	4.4	0.7	1.3	-14%	3.7	0.67	i
O=C1NC[C@@H](CCCCN2CCN(Cc3ccccc3)C(=O)C2=O)N(Cc2ccccc2)C1=O	.	-1.4	0.8	.	.	.	i

Three compounds drawn at random from the list so far:
SMILES	UCH37 inh	HNF4A DNA FP	AF4-AF9 inh	Vif TR-FRET	RanGTP-Impb inh	Ecoli growth	FGF22 binding
CCOC(=O)c1ccc(-c2c(-c3ccc4c(c3)OCO4)noc2C)cc1F	0.2	-0.1	-17	.	-0.5	0.71	i
COc1ccc(Cl)cc1NC(=S)N(CCCN1CCOCC1)Cc1cn(C)c2ccccc12	5.4	-1.0	.	.	?	0.69	.
O=C(CCc1ccco1)CCc1ccco1	-1.4	-7.2	0.6	9%	.	0.66	i

Copied from the list:
For AF4-AF9 inh, COC(=O)C1=C(C)N(C)C(=S)NC1c1c(OC)ccc2ccccc12 (centres undefined) shows -0.1
For RanGTP-Impb inh, CCOC(=O)CSc1nc2c(c(=O)n(C)c(=O)n2C)n1CCCc1ccccc1 shows 4.1

The results go on.
SMILES	UCH37 inh	HNF4A DNA FP	AF4-AF9 inh	Vif TR-FRET	RanGTP-Impb inh	Ecoli growth	FGF22 binding
CC(=O)Nc1ccc(CCc2nc3ccccc3[nH]2)cc1	2.2	-4.6	-2.4	2%	-1.3	0.6	i
CC(=O)c1cccc(S(=O)(=O)N2CCC(C(=O)O)CC2)c1	1.7	-0.6	0.3	16%	-1.6	0.68	i
C(=C\c1ccccc1)/CN1CCN(C(c2nnnn2C2CCCC2)C2CC2)CC1 (centres undefined)	.	0.2	4.4	.	.	.	i
O=C(c1cccc(NS(=O)(=O)c2cccc(F)c2)c1)N1CCN(c2ccccc2)CC1	3.2	1.0	4.7	12%	5.3	0.67	i
CC(C)N1CC(COc2ccc(Br)cc2)OC1=O (centres undefined)	1.1	1.6	-1.2	0%	0.5	0.64	i
C=CCSc1nc2sc(-c3ccccc3)cc2c(=O)n1N	-28	1.8	.	11%	0.3	0.71	.
CN1c2ccccc2C(C)(C)C12C=Nc1c(cc(N3CCOCC3)c3ccccc13)O2 (centres undefined)	.	-4.1	.	-3%	-28	.	.
c1ccc(CN2CCN(C(c3ccccc3)c3nnnn3Cc3ccccc3)CC2)cc1 (centres undefined)	0.1	2.0	.	-4%	-2.6	0.74	.
COc1ccc(-c2[nH]ncc2CN2CCC(c3ccncc3)CC2)cc1F	4.4	-1.1	9.8	-2%	?	0.79	i
Cc1cccc(NC(=O)CN(CC2CCCO2)C(=O)c2cc(S(=O)(=O)N(C)C)ccc2F)c1C (centres undefined)	5.2	-1.4	-11	-1%	.	0.66	i
O=C(O)c1oc2ccccc2c1CSc1ccc(Cl)cc1	2.7	-0.8	-2.4	.	2.1	0.63	i
C#CCCOC(=O)N1C2=NC(C(=O)OC)=C(C(=O)OC)[C@@H]3Nc4ccccc4[C@]23C[C@H]1C(=O)OC	2.8	4.8	.	.	-2.9	.	.
COc1ccc(N2C(=O)CC2(C#N)c2ccc(OCc3ccccc3)cc2)cc1 (centres undefined)	2.4	2.7	0.1	30%	1.3	0.71	i
COc1ccc(N2CCN(C(=O)COC(=O)COc3ccc(C#N)cc3)CC2)cc1	0.8	2.1	-2.1	7%	-4.0	0.69	i
Cc1ccc(-c2noc(CCC(=O)N3CCCC3)n2)cc1	4.2	1.3	.	-3%	.	0.75	.
O=C(O)CCC1C(=O)NC(=O)CC1c1ccccc1 (centres undefined)	.	-3.2	-8.3	.	.	.	i
CCOC(=O)c1cnc(SC)nc1Sc1ccccc1	5.0	3.3	.	-1%	0.4	0.75	.
COc1ccc(OCCC(=O)OCC(=O)NC2CCCCC2)cc1	0.6	1.6	-2.8	0%	.	0.72	i
C=C(C)COc1ccc(-c2[nH]ncc2Oc2ccccc2OC)c(O)c1	6.4	-4.0	-8.4	-1%	-0.1	0.68	i
COC(=O)C[C@@H]1CC[C@H](NC(=O)Nc2ccc(F)cc2)[C@@H](CO)O1	.	2.8	-7.4	.	.	.	i
O=C(CSc1n[nH]c(-c2ccccc2)n1)NC1CCCCC1	2.8	5.2	-1.8	.	0.9	0.71	i
Cc1ccc(NC(=O)c2c(-c3c(F)cccc3Cl)noc2C)cc1F	5.3	1.6	.	5%	13	0.71	.
C=CCc1cccc2cc(C(=O)N3CCN(C(=O)c4ccccc4)CC3)c(=O)oc12	0.0	3.4	2.6	.	0.8	0.69	i
